# A1 inh – caspase 3/7 activation in MEF A1-2A-BIM cells, primary screen, A1 inhibitor project, cell-based, luminescence, HTS. Caspase-Glo 3/7 luminescence, 3 h; percent of clofoctol response, vehicle zero. caspase activation, % (concentration not given with the values). 0.066% of 330,000 active;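 active means over half of replicate activation scores above 10%, or exactly half above 10 with the replicate mean above 10; inconclusive means replicate mean below 10 yet half the replicates above 10; inactive means over half of replicates below 10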;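 further: wells of about 30 µL received 50 nL stock; many hits fall short of the cut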
# Beta apoptosis – inhibitors of cytokine-induced beta cell apoptosis, primary screen, luminescence. 0.8% of 300,000 active. INS-1E cytokine-induced death, ATP luminescence, 48 h; percent of positive-control rescue, neutral wells zero. protection from apoptosis, % (test concentration not listed);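 active means all replicates at 75% or more, or half of them and the mean; inconclusive means half reach 75% but not the mean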;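 further: 0% = cytokine-treated negative control wells and 100% = positive control rescue; higher means more ATP so stronger rescue from cytokine killing; wells of about 40 µL received 100 nL stock; the first replicate is given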
# LANA-H2A inh – blockers of LANA interaction with H2A/H2B – biochemical, FP readout, HTS, primary screen; cell-free LANA-H2A/H2B peptide, fluorescence polarization; Protein LANA1 (Human herpesvirus 8 type P (isolate GK18)), Q9QR71; 0.6% of 320,000 active; inhibition, % (test concentration not listed); in the data active means inhibition mostly above about 10%, no sharp cut-off; inactive means mostly below about 6.7%;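 further: stock transfer was 7.5 nL into about 10 µL; 0% = median of vehicle wells and 100% = median of positive control wells; one replicate is shown; the record names a cut of 25% in any replicate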
# rRNA inh HTS – reduced GFP signal of wild-type E. coli, primary screen, bacterial rRNA inhibitor project, GFP/RFP fluorescence, OD600, single point | E. coli WT GFP vs humanized-ribosome RFP mutants, 24 h; active compounds read low; DMSO median 0, no signal -100 | GFP signal change (wild-type ribosome), % (concentration not given with the values) | 1.6% of 350,000 active | AID 720706, 2013;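 active means significant combined selectivity score with lowered wild-type GFP, culture density cut under 30%, mutant RFP and density less affected; inactive means any of these conditions unmet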; further: one replicate is shown; some compounds called inactive have numbers as strong as hits
# Calb FLC – C. albicans growth inhibition with fluconazole, primary screen, CaCi-2 strain, Alamar Blue fluorescence. C. albicans CaCi-2 (fluconazole-resistant clinical isolate) + fluconazole, 48 h. growth inhibition, % (concentration not given with the values). 0.57% of 300,000 active;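 active means most replicates above 75%; inconclusive means exactly half above 75%; inactive means most below 75%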;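 further: all wells also contain fluconazole at 8 µg/ml as a sub-toxic cotreatment; 0% = median of DMSO wells and 100% = median of geldanamycin control wells; wells of about 8 µL received 7.5 nL stock; the first replicate is given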
# T cruzi inh – inhibitors of intracellular T. cruzi growth, primary screen, luminescence, NIH3T3 host cells; T. cruzi beta-gal in NIH3T3, 90 h; 1.4% of 300,000 active; inhibition, % (test concentration not listed);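 active means mean inhibition across valid replicates above about 55%, limit read from the data; inconclusive means mean below that limit but half or more replicates reach it; inactive means mean below it, under half of replicates reach it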;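 further: signal also drops with host cell toxicity which is not excluded here; 0% = plate median of DMSO wells and 100% = zero luminescence signal; higher percent means less beta-gal luminescence so fewer parasites; stock transfer was 50 nL into about 50 µL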
# ALR H2O2 inh – inhibitors of human ALR sulfhydryl oxidase, primary screen, biochemical, H2O2 detection, HRP-luminol luminescence, single point; AID 485317, 2010; inhibition, % (concentration not given with the values); 3.8% of 290,000 active; FAD-linked sulfhydryl oxidase ALR (Homo sapiens), P55789; purified ALR, DTT oxidation;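 active means mean and each replicate at 75% or more; inconclusive means only one of the two met; inactive means neither met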;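 further: stock transfer was 7.5 nL into about 7.5 µL; 0% = neutral wells and 100% = wells with inactivated enzyme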
# Target sequence (P55789 whole entry, looked up): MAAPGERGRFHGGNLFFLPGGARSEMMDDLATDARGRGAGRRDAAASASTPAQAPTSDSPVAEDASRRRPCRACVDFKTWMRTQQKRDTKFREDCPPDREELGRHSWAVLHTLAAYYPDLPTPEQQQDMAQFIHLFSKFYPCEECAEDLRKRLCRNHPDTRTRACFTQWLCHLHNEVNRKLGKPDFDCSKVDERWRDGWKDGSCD
# Beta2AR agonist – beta2AR agonists driving receptor internalization, primary screen, cell-based, FAP fluorogen, flow cytometry; Beta-2 adrenergic receptor (Homo sapiens), P07550; Am2.2-beta2AR cells; reference of the scale not given here; response, % (no concentration beside the values); 0.43% of 340,000 active; AID 504454, 2011;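 active means response above a set limit, near 3 SD of response in nonfluorescent compounds, cut at about 42% in these data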;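 further: stock transfer was 100 nL into about 11 µL; a reference agonist was the positive control; negative values mostly stem from fluorescent compounds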
# Target sequence (P07550 whole entry, looked up): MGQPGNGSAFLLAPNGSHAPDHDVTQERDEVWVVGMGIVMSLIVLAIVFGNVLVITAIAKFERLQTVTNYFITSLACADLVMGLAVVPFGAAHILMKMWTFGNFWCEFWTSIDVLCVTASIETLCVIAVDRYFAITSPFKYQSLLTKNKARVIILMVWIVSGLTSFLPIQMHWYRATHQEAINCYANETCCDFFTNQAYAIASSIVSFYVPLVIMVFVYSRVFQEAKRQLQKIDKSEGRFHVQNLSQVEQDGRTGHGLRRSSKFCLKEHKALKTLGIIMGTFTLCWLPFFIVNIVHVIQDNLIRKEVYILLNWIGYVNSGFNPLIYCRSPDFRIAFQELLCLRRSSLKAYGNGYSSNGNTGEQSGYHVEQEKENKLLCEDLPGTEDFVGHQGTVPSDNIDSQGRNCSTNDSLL
# rRNA inh HTS OD600 – second read-out of rRNA inh HTS, no call of its own (marks repeat the call); OD600 change, %; measured here: OD600 growth;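 optical density of the mix in the first replicate; 0 = DMSO median and -100 = no signal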
# rRNA inh HTS RFP – further read-out of rRNA inh HTS, marked with its call; RFP signal change, %; measured here: RFP humanized mutant strains;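 first replicate; 0 = DMSO median and -100 = no signal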
# * = called active by the depositor; ? = inconclusive; / = no result given. The list is partial; count on the stated rates, not on these rows.
SMILES,A1 inh,Beta apoptosis,LANA-H2A inh,rRNA inh HTS,rRNA inh HTS OD600,rRNA inh HTS RFP,Calb FLC,T cruzi inh,ALR H2O2 inh,Beta2AR agonist
CC(=O)Nc1ccc(S(=O)(=O)N(C)CC(=O)N/N=C/c2cccc(O)c2)cc1,-0.5,0,-3.5,2,2,-2.3,0,4,28,10
Cc1ccccc1N(CC(=O)Nc1ccc(S(=O)(=O)N2CCOCC2)cc1)S(C)(=O)=O,-0.3,5,4.0,-2,0,1.1,-10,-5,0,4
COc1c(O)ccc(C2NC(=O)NC(C)=C2C(=O)Nc2ccccc2C)c1[N+](=O)[O-] (stereo not drawn),-0.2,-6,5.9,16,12,-1.6,-21,0,-27,2
CC1(C)Cc2c(sc(NC(=O)Cc3ccccc3)c2C#N)CO1,-0.2,-4,-2.2,2,0,2.6,9,-1,-12,-2
COc1ccc(CCNC(=O)COC(=O)c2ccc(Br)o2)cc1OC,-0.5,-2,-3.1,/,/,/,-14,-5,-3,-3
CCCCn1c(N)c(N(CC(C)C)C(=O)c2cc3c(s2)CCC3)c(=O)[nH]c1=O,-0.2,6,/,/,/,/,3,-3,/,1
COc1cccc(/C=N/NC(=O)c2cnccn2)c1O,-3.2,4,6.1,7,7,-8.6,-4,8,11,1
CCOc1ccc(NC(=O)C(C)NC(=O)c2ccccc2Cl)cc1S(=O)(=O)N1CCCC1 (stereo not drawn),-1.0,0,3.3,/,/,/,/,/,-7,0
Cc1nc(Nc2ccccc2)sc1C(=O)c1ccccc1,-0.6,/,0.7,-37,-67,1.7,23,14,-12,6
Cc1cc(NC(=O)CCl)n(-c2nc3ccccc3s2)n1,1.9,1,-2.6,0,17,-1.2,-5,-16,5,1
CO/N=C(\Cn1ncc(NC2CCCCC2)c(Br)c1=O)c1ccc(Cl)cc1,-1.7,1,-5.6,/,/,/,-4,/,/,-4
COc1cccc(-n2cc(CN(C)Cc3nc(Cc4ccccc4)no3)cn2)c1,0.0,-6,0.4,1,-8,-1.4,-5,18,0,-7
CCCn1c(CN2CCCCC2CC)nc2c1c(=O)n(C)c(=O)n2C (stereo not drawn),-0.1,-5,1.2,/,/,/,-17,5,34,-5
COc1ccc(CCN(C)Cc2cccc3ccccc23)cc1OC,1.6,-1,-0.3,0,1,-0.2,-12,?,/,-4
CC(=O)c1ccc2c(c1)C1C=CCC1C(c1ccc(S(=O)(=O)N3CCOCC3)cc1)N2 (stereo not drawn),0.7,-3,0.9,/,/,/,/,/,-14,-3
CCOC(=O)c1ccc(-c2csc(NC(=O)CN3CCC(C)CC3)n2)cc1,?,2,4.7,2,4,2.5,-11,15,-1,0
O=C(O)CCn1c(=S)n(CCC(=O)O)c2ccccc21,0.2,4,-9.7,9,0,-0.1,30,-3,-10,0
O=C(CCC(=O)N(c1ccc(F)cc1)C(C(=O)NC1CCCC1)c1ccncc1)Nc1cccnc1 (stereo not drawn),-0.8,-1,-0.7,/,/,/,32,-1,-1,-3
CCOC(=O)c1c(C)c(C(=O)Nc2ccc(F)cc2)c(C)n1C,0.1,7,3.2,4,20,1.8,3,-11,-13,15
CCOC(=O)c1sc2nc(CC(=O)OC)nc(N3CCN(c4ccc(OC)cc4)CC3)c2c1C,0.7,-3,4.1,/,/,/,-5,63*,17,10
CC1CN(C(=O)c2ccc(C(=O)c3ccccc3)cc2)CC(C)O1 (stereo not drawn),-0.2,1,5.3,-4,2,-1.1,-7,-2,-5,6
CC(C(=O)NC(=O)NC1CCCCC1)N1CCN(C(c2ccccc2)c2ccccc2)CC1 (stereo not drawn),0.0,3,3.0,/,/,/,-16,37,-11,18
COc1ccc(C2=C(CC(=O)O)C(=O)CC2)cc1,0.5,0,1.9,/,/,/,-4,-18,2,5
CC(C)N1CCC(N2CCN(C3CCCCCC3)CC2CCO)CC1 (stereo not drawn),1.0,-4,-0.3,8,-1,-2.8,-6,19,1,-2
Cc1ccc(CNC(=O)c2cc(-c3ccccc3)nn2Cc2cc(C)no2)cc1,-0.2,-6,-3.0,-19,-24,-16,1,-9,-6,4

# Entries shown so far with bromine, in the order listed:
SMILES,A1 inh,Beta apoptosis,LANA-H2A inh,rRNA inh HTS,rRNA inh HTS OD600,rRNA inh HTS RFP,Calb FLC,T cruzi inh,ALR H2O2 inh,Beta2AR agonist
COc1ccc(CCNC(=O)COC(=O)c2ccc(Br)o2)cc1OC,-0.5,-2,-3.1,/,/,/,-14,-5,-3,-3
CO/N=C(\Cn1ncc(NC2CCCCC2)c(Br)c1=O)c1ccc(Cl)cc1,-1.7,1,-5.6,/,/,/,-4,/,/,-4

# (cont.)
SMILES,A1 inh,Beta apoptosis,LANA-H2A inh,rRNA inh HTS,rRNA inh HTS OD600,rRNA inh HTS RFP,Calb FLC,T cruzi inh,ALR H2O2 inh,Beta2AR agonist
CCCN1C2CCCC1CC(NC(=O)C1CCCCC1)C2 (stereo not drawn),0.9,-1,-0.9,/,/,/,-4,20,0,3
CC1CN(C(=O)CSc2cn(CC(=O)N3CCOCC3)c3ccccc23)CC(C)O1 (stereo not drawn),2.4,-4,4.1,13,7,-0.8,-3,-9,3,-2
COc1ccc(S(=O)(=O)NC(C)C(=O)N2CCCC2)cc1Cl (stereo not drawn),0.6,/,-2.9,10,9,3.1,3,-2,-8,-5
CCCc1cc(=O)[nH]c(Nc2ccc(OC)c(Cl)c2)n1,1.5,-7,0.9,/,/,/,2,12,-8,6
COCCN1Cc2cccc(C(=O)Nc3ccc(C)c(C)c3)c2C1=O,-3.6,4,-2.7,/,/,/,-4,19,-6,-10
CCOC(=O)c1ccc(NC(=O)c2nc[nH]c2C(=O)N[C@@H](CC(C)C)C(=O)OC(C)(C)C)cc1,-1.1,6,0.1,4,14,1.5,3,8,-7,13
CSC1=N/C(=C\c2ccccc2)C(=O)N1C,0.1,-9,-0.2,5,1,-8.6,-14,-2,-1,3
Cc1cc(C)n(Cc2ccc(NC(=O)c3c([N+](=O)[O-])c(C)nn3C)cc2)n1,0.4,5,1.9,0,4,-6.2,0,-10,-5,5
CCOC(=O)C1=C(CSc2nc(-c3ccccc3)ccc2C#N)OC(N)=C(C#N)C1c1cccnc1 (stereo not drawn),0.5,2,1.2,/,/,/,19,3,-5,-50
CC(=O)N1CCN(C2=NC(=O)/C(=C\c3cccs3)S2)CC1,-0.2,-2,-1.6,17,14,-6.6,4,8,-19,-4
CCN(CCCNC(=O)c1c(C)cc(=O)oc1C)c1ccccc1,0.8,-2,3.5,/,/,/,1,-8,99*,-13
O=C(NCCN1CCCC1)c1ccc(Br)cc1,0.3,1,-2.2,19,14,2.5,2,11,-17,-9
O=C(OCC(=O)N1CCN(C(=O)c2ccco2)CC1)c1cc(-c2ccc(Cl)c(Cl)c2Cl)nc2ccccc12,0.9,8,-3.0,/,/,/,-3,31,/,-1
Cc1ccccc1C(=O)N1CC(=O)Nc2ccc(F)cc2C1c1ccc(F)cc1 (stereo not drawn),0.3,-5,0.9,-6,-10,1.1,-3,3,-2,17
CCn1cc(/C=N/N=C2\CCC3C4CCc5cc(O)ccc5C4CC[C@]23C)c(C)n1 (stereo partly drawn),-0.2,4,6.6,/,/,/,3,-9,4,2
COc1cc(/C=C2\SC(=S)N(NC(=O)c3cccnc3)C2=O)ccc1O,0.7,5,-2.2,-6,-3,6.0,-9,-5,99*,2
Cc1ccccc1N1CCN(CCC(=O)Nc2ccc(F)cc2)CC1,0.6,-1,-1.7,-16,-21,2.0,2,0,-5,-4
O=[N+]([O-])c1cccc(/C=N/NS(=O)(=O)c2ccccc2)c1,0.2,-6,3.1,21,5,-2.2,3,7,3,4
Cc1ccc(OCc2nnc(SCC(=O)c3ccccc3)n2Cc2ccco2)cc1,-0.7,1,4.1,/,/,/,-6,14,26,-6
C=CCOC(=O)C1=C[C@H](c2csc3ccccc23)[C@@H](CCCO)[C@H](OCC)O1,0.1,0,-0.3,-29,-52,-13,5,-6,-11,7
CCN(CC)S(=O)(=O)c1ccc(C(=O)NCc2ccc3[nH]c4c(c3c2)CCCC4)cc1,-1.6,4,-3.9,1,-12,-1.6,-2,20,-38,16
COc1ccc(C=Nc2ccc3[nH]ncc3c2)c(O)c1,0.3,-5,-2.4,2,-8,0.7,-3,-9,90*,2
CCC(C)NC(=O)C1c2ccccc2C(=O)N1Cc1ccccc1OC (stereo not drawn),0.3,-3,5.8,/,/,/,-2,-1,0,11
COc1ccc(N(C(=O)c2snc(C(N)=O)c2N)C(C(=O)NC2CCCC2)c2ccc(OC)c(OC)c2)cc1 (stereo not drawn),-0.5,-1,-1.0,2,4,-0.9,1,19,2,-1
COCCNC(=O)CN(c1cc(Cl)ccc1OC)S(C)(=O)=O,1.3,-1,1.1,6,3,-3.0,-4,-6,0,-6

# (further entries)
SMILES,A1 inh,Beta apoptosis,LANA-H2A inh,rRNA inh HTS,rRNA inh HTS OD600,rRNA inh HTS RFP,Calb FLC,T cruzi inh,ALR H2O2 inh,Beta2AR agonist
COc1cccc(N2C(=O)Nc3ccccc3C2(O)C(=O)NCc2ccc3c(c2)OCO3)c1 (stereo not drawn),0.5,6,-0.9,/,/,/,5,0,2,-2
COc1ccc(C(CC(=O)O)NC(=O)c2ccccc2)cc1OC (stereo not drawn),1.1,-1,0.0,/,/,/,-6,-6,0,6
CC(C)c1nc(CN(C)C(=O)N[C@H](C(=O)N[C@@H](Cc2ccccc2)C[C@H](O)[C@H](Cc2ccccc2)NC(=O)OCc2cncs2)C(C)C)cs1,1.1,10,-9.3,/,/,/,/,13,-41,/
Cc1cc(C(=O)CSc2nc3ccccc3[nH]2)c(C)n1Cc1ccco1,-0.6,47,-4.5,-34*,-21*,4.0*,-31,-7,-3,-30
Cc1nc(-c2ccc(C(=O)N3CCCC3)cc2)cs1,-6.7,5,2.5,11,11,0.0,0,3,-7,0
CO[C@@]1(NC(=O)CSCC#N)C(=O)N2C(C(=O)O)=C(CSc3nnnn3C)CS[C@@H]21,1.8,1,1.0,/,/,/,-6,-5,4,-1
Oc1[nH]c2ccc(Br)cc2c1N=Nc1ccc(F)cc1,1.7,-5,1.1,12,15,-0.2,-9,24,0,6
CC(C)(C)c1ccc(-c2nnc(SCC(=O)c3ccc4c(c3)OCCO4)o2)cc1,-1.2,-3,0.2,/,/,/,-6,-6,-2,-2
CN(C)c1nc(SCC#N)nc(N(C)C)n1,0.2,2,-1.7,/,/,/,7,0,-8,-2
COc1ccccc1CNC(=O)CN1C(=O)COc2ccc(S(=O)(=O)NC3CCCC3)cc21,0.6,-3,0.3,-2,8,0.7,-3,2,2,-2
CCC(CC)C(=O)Nc1ccc(Nc2ccccc2)cc1,-0.5,-2,-2.3,/,/,/,-33,23,23,-1
COc1ccc(CCNC(=O)c2cc(=O)[nH]c3ccccc23)cc1,1.3,-5,-0.2,9,18,-0.6,0,0,-1,0

# Screening results: PubChem, several laboratories
